GLA inh pH 4.5 = inhibitors of human alpha-galactosidase A at pH 4.5 | AID 1467 | purified enzyme, 4-MU-alpha-Gal fluorescence, pH 4.5 | 230,000 tested, under 10 active | P06280 | activity change, negative = inhibition, % at 105 µM; inconclusive = small, poorly fitted or top-dose-only inhibition, or a rising curve; inactive = flat fitted curve, though single readings scatter; no compound was filed as active;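 further: 0% = full activity with enzyme and -100% = basal without enzyme; dose as in the result columns while the protocol names 77 µM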
Target sequence (P06280 whole entry, looked up): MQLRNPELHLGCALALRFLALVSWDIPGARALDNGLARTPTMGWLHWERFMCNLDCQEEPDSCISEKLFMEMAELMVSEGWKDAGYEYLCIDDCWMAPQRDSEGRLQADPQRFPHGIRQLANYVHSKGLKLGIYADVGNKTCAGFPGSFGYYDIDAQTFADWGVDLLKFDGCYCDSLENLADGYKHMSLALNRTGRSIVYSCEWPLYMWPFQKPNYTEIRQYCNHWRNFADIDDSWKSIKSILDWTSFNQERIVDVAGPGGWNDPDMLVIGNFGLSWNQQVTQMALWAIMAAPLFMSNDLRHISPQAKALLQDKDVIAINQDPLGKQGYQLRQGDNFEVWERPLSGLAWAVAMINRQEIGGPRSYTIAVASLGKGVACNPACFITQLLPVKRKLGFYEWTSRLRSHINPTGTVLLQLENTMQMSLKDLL
* marks the source's active call; other numbers are inactive results; u = inconclusive; & = joins results of further samples.

SMILES | GLA inh pH 4.5
CC(=O)OCC(=O)[C@@]12OC(C)(C)O[C@@H]1C[C@H]1[C@H]3C[C@H](F)C4=CC(=O)C=C[C@@]4(C)[C@]3(F)[C@H](O)C[C@@]12C | 7
Cc1ccc(O)c(C(CCN(C(C)C)C(C)C)c2ccccc2)c1 (stereo not drawn) | -5
CC(=O)OC1C[C@]2(C)C(C(C)=O)CCC2C2CCC3=CC(=O)CC[C@@]3(C)C12 (stereo partly drawn) | 18
C[C@@H]1CCC2[C@](C)(CO)C(O)CC[C@@]2(C)[C@@]12CC[C@](CO)(CCO)O2 (stereo partly drawn) | 2
CCC(=O)O[C@H]1C(O[C@@H]2C(C)[C@H](O[C@H]3C[C@@](C)(OC)C(O)C(C)O3)C(C)C(=O)OC(CC)[C@@](C)(O)C(O)[C@H](C)C(=O)C(C)C[C@]2(C)O)OC(C)CC1N(C)C (stereo partly drawn) | u
C[C@@H](C(=O)Nc1ccc2ccccc2c1)[C@@H]1C[C@@]1(C)[C@@H](NS(=O)(=O)c1ccc2ccccc2c1)c1ccccc1 | -3
COCCN1C(=O)N[C@@H](c2cccc(C(F)(F)F)c2)C(C(C)=O)=C1C | 0
CCCn1c(C)nc2c(NCCN(C(C)C)C(C)C)nc(C)nc21 | 0
CNc1ccccc1C(=O)N1CCc2c([nH]c3ccccc23)C1=O | -2
COC1/C=C/OC2(C)Oc3c(C)c(O)c4c(O)c(c(/C=N/N5CCN(C)CC5)c(O)c4c3C2=O)NC(=O)/C(C)=C/C=C/C(C)C(O)C(C)C(O)C(C)C(OC(C)=O)C1C (stereo not drawn) | -13
CC1=CC2C(CC1=O)C(C)=CCC2C(C)C (stereo not drawn) | -8
CN(C)CCCO[C@H]1C([C@H](O)CO)O[C@@H]2OC(C)(C)O[C@@H]21 (stereo partly drawn) | -8
CC(=O)[C@H]1CC[C@@H]2[C@H]3CC=C4C[C@@H](O)CC[C@]4(C)[C@H]3CC[C@]12C | -4
CCCCc1nc2c(c3c1C[C@H](C)OC3)CN(C(=O)Cc1cccc(OC)c1)CC2 | -2
CCCC/C=C/C(NC(=O)c1ccccc1)c1ccccc1 (stereo not drawn) | -12
CCC(C)C(=O)OC1CC(O)C=C2C=CC(C)C(CCC(O)CC(O)CC(=O)O)C21 (stereo not drawn) | 6
CC(=O)OC1CCC2(C)C3=C(CCC2C1(C)C)[C@@]1(C)CCC(C(C)CCC=C(C)C)[C@@]1(C)CC3 (stereo partly drawn) | -9
CC(C)c1cccc2nc3c(c([Si](C)(C)C(C)(C)C)c12)Cn1c-3cccc1=O | -7
CC1(O)CC2C(CC1O)C2(C)C (stereo not drawn) | 4
COC(=O)N[C@@H](c1cccc(C)c1)[C@@H](C)[N+](=O)[O-] | 8
C=C(CCC12O[C@H](C(=O)O)[C@@](O)(C(=O)O)[C@](C(=O)O)(O1)[C@H](OC(=O)/C=C/[C@@H](C)C[C@@H](C)CC)[C@H]2O)[C@@H](OC(C)=O)[C@H](C)Cc1ccccc1 | -7
C=C1C[C@@]23C[C@@]1(O)CC[C@@H]2[C@]12C=C[C@@H](O)[C@](C)(C(=O)O1)[C@@H]2[C@@H]3C(=O)O | 3
CC(=O)N(O)[C@@H]1c2cc(C#N)ccc2OC(C)(C)[C@H]1O | 3
COC(=O)CC1C2(C)CC34OC5(C)O[C@@]6(C7/C(=C(/O)C(C)C)C(=O)OC(c8ccoc8)[C@]7(C)C(OC(C)=O)C(OC(C)=O)[C@]6(O5)[C@@]13C)C(OC(C)=O)[C@]4(O)C2OC(=O)C(C)C (stereo partly drawn) | -11
C=C1CCC2C(C)(CO)C(O)CCC2(C)C1C/C=C1\C(=O)OCC1O (stereo not drawn) | 3
CC(C)CCCC(C)C1CCC2C3=CC[C@@H]4CC(O)CC[C@@]4(C)C3CC[C@]21C (stereo partly drawn) | 7
CCN1CCN(C(=O)N[C@H](C(=O)N[C@@H]2C(=O)N3[C@@H]2SC(C)(C)[C@@H]3C(=O)O)c2ccccc2)C(=O)C1=O | 2
CCCCNc1nc(C)nc2c1nc(-c1ccccc1)n2CCCN(CC)CC | -10
O=c1cc(O)cc(/C=C/c2ccc(O)c(O)c2)o1 | -14
CN(C)CCCc1cc(C(=O)Nc2ccc(-c3ccncc3)cc2)ccc1O | 0
CC(=O)O[C@H]1C[C@@H]2CCC3C(CC[C@@]4(C)[C@H]3C[C@H]([N+]3(C)CCCCC3)[C@@H]4OC(C)=O)[C@@]2(C)C[C@@H]1[N+]1(C)CCCCC1 (stereo partly drawn) | -2
COc1ccccc1NC(=O)Nc1nc(-c2cccnc2)nc2ccccc12 | -2&-2
C=C1C2CC[C@@]3(C)C(c4ccoc4)OC(=O)C[C@@]13OC1CC(=O)C(C)(C)C(CC(=O)OC)[C@]12C (stereo partly drawn) | 4
C=C1CCC(=O)C(C)CCC2C1CC2(C)C (stereo not drawn) | 2
COc1ccc2c(c1)O[C@@H](c1ccc3c(c1)OCO3)[C@H](OC(=O)NCc1ccc3c(c1)OCO3)C2=O | 0
CCCCCCCCCCCCCCCCCCNC(=O)OCC(COP(=O)([O-])OCC[n+]1ccsc1)OC (stereo not drawn) | -5
COc1cccc([C@@H]2Oc3ccc(Br)cc3C(=O)[C@H]2OC(=O)N[C@H]2CCCc3ccccc32)c1 | -6
COC(=O)[C@@]1(Cc2ccc(F)cc2)[C@H]2c3cc(C(=O)N4CCCC4)n(CC4CC4)c3C[C@H]2CN1C(=O)c1ccccc1 | -14
Cc1nc(NC2CCCCC2)c2nc(-c3ccccc3)n(C(C)CN(C)C)c2n1 (stereo not drawn) | -4
COCCn1c(C(=O)N2CCCC2)cc2c1C[C@H]1CN(C(=O)c3ccccc3)[C@@](Cc3ccc(OC)cc3)(C(=O)OC)[C@@H]21 | -5
N=c1ccn2c(n1)O[C@@H]1[C@H](O)[C@H](CO)O[C@@H]12 | -2
CCN1C(=O)C=CC1=O | 2
CCCCCCc1c(C[C@H](N)C(=O)O)o[nH]c1=O | 4&2
CN(C)C(=O)c1ccc(-c2nccc(NCc3cccnc3)n2)cc1 | -24
NS(=O)(=O)c1cc2c(cc1Cl)N[C@@H](CC1CCCC1)NS2(=O)=O | -27
COc1cccc([C@@H]2Oc3ccc(Br)cc3C[C@H]2OC(=O)NS(=O)(=O)c2ccc(C)cc2)c1 | -14
O=c1cc(-c2ccccc2)oc2c1ccc1ccccc12 | u
C=CCN1CCc2cc(O)c(O)cc2[C@H](c2ccccc2)C1 | -3
CC1=C2C(=COC(C)C2C)C(=O)C(C(=O)O)=C1O (stereo not drawn) | 0
COC(=O)[C@@H]1C[C@H]1[C@@H](NS(=O)(=O)c1ccc2ccccc2c1)c1ccccc1 | -9
CCC(=O)O[C@H](CC(=O)O)C[N+](C)(C)C | 6
N#Cc1ccc(CS(=O)(=O)c2nnnn2-c2ccccc2)cc1 | -3
N[C@H](C(=O)O)C(O)C(O)C(O)CO (stereo partly drawn) | 6
COC(=O)CC1c2ccccc2C=C(C)N1C(=O)OC (stereo not drawn) | -4&7
O=C(O)CN(CCN(CC(=O)O)CC(=O)O)CC(=O)O | -11&-2
CC1=CC(=O)C2C(C)(C)CCC[C@@]2(C)[C@@]1(O)CCc1ccoc1 (stereo partly drawn) | -5
CC(C)(C)c1cc(O)c(C(C)(C)C)cc1O | -1
COc1cc(O)c(C(=O)c2ccccc2)cc1S(=O)(=O)O | -1
COC(=O)c1ccc(C(NC(=O)OCc2ccccc2)/C(F)=C/[C@@H](C)C(=O)NCCO)cc1 (stereo partly drawn) | -1
CN(C)C(=O)c1ccc(-c2cncnc2NCCN2CCOCC2)cc1 | -3

Rewritten with each value named: part of the list above.
CC(=O)O[C@H]1C[C@@H]2CCC3C(CC[C@@]4(C)[C@H]3C[C@H]([N+]3(C)CCCCC3)[C@@H]4OC(C)=O)[C@@]2(C)C[C@@H]1[N+]1(C)CCCCC1 (stereo partly drawn)
- GLA inh pH 4.5 = -2
COc1ccccc1NC(=O)Nc1nc(-c2cccnc2)nc2ccccc12
- GLA inh pH 4.5 = -2&-2
C=C1C2CC[C@@]3(C)C(c4ccoc4)OC(=O)C[C@@]13OC1CC(=O)C(C)(C)C(CC(=O)OC)[C@]12C (stereo partly drawn)
- GLA inh pH 4.5 = 4
C=C1CCC(=O)C(C)CCC2C1CC2(C)C (stereo not drawn)
- GLA inh pH 4.5 = 2

The results go on:
SMILES | GLA inh pH 4.5
COC(=O)C1(C(=O)OC)C[C@H]2CON=C2[C@H]1c1ccccc1 | 1&1
CCCn1c(C)nc2c(NC(C)CN(C)C)nc(C)nc21 (stereo not drawn) | -2
O=C(OCC(F)(F)F)[C@H](O)[C@@H](O)C(=O)OCC(F)(F)F | -2
Cc1nc(-c2coc3c(O)c(O)ccc3c2=O)cs1 | -2
CC1OC(n2cc(F)c(=O)[nH]c2=O)C(O)C1O (stereo not drawn) | 11
COC(=O)C1=C(C(=O)OC)[C@@H]2N(Cc3ccccc3)c3ccccc3[C@@]23C[C@@H](C(=O)OC)N(S(=O)(=O)c2ccc(C)cc2)C3=N1 | 1
CC[C@H]1C(c2cccc(Cl)c2)=NN(c2ccccc2)[C@@H]1CO | u
COC(=O)c1c(C)c2c(c(C)c1O)OC(=O)c1c(C)c(Cl)c(O)c(Cl)c1O2 | 0&5
CN(C)Cc1ccccc1-c1cncnc1NCc1ccccc1 | 5
COc1ccccc1CNc1ncnc2ccc(-c3c(C)noc3C)cc12 | -7
COC1=CC(=O)C(O)=C/C1=C\C=C\c1ccccc1 | -4
CC1(C)CC[C@]2(C(=O)O)CC[C@]3(C)C(=CCC4[C@@]5(C)CC[C@H](O)C(C)(C)C5[C@H](O)C[C@]43C)C2C1 (stereo partly drawn) | -2
OC[C@@H]1O[C@@H](n2cnc3c(N[C@H]4CCC[C@@H]4O)ncnc32)[C@H](O)[C@H]1O | -5
CC[N+](C)(CC)CCC[n+]1c(-c2ccccc2)c2cc(N)ccc2c2ccc(N)cc21 | 1
CCOC(=O)C1(O)Oc2cc(OC)cc(OC)c2C(=O)C1c1ccccc1 (stereo not drawn) | -5
N[C@H](C(=O)O)[C@H]1C[C@@H]1C(=O)O | -1
COc1c(O)cc(O)cc1O | -8
OC[C@@H](O)[C@@H](O)CCc1ccccc1 | -3
CC(C)=CCC/C(C)=C/CC/C(C)=C/CO | -13&10
COC(=O)CCCC1=CC2=CC(=O)C(C)(OC(=O)c3cccs3)C(=O)C2=CO1 (stereo not drawn) | -7
NCCC(=O)O | 2
NC(Cc1cnc[nH]1)C(=O)Nc1ccc2ccccc2c1 (stereo not drawn) | -6
CCCn1c(C)nc2c(NCCCN3CCCCC3C)nc(C)nc21 (stereo not drawn) | 0
CCC/C=C(\CCC)C(NS(C)(=O)=O)c1ccccc1 (stereo not drawn) | -7
N[C@H](C(=O)N[C@@H]1C(=O)N2C(C(=O)O)=C(Cl)CS[C@@H]12)c1ccccc1 | 7&-2
CC(C)C1=CC2=CC[C@H]3[C@](C)(C(=O)O)CCC[C@]3(C)C2CC1 (stereo partly drawn) | -17
C[C@H]1Cc2c(COc3ccccc3)nc3c(c2CO1)CN(C(=O)Cc1cccs1)CC3 | 7
Nc1ncnc2c1ncn2[C@@H]1O[C@H](COP(=O)(O)OP(=O)(O)OP(=O)(O)OP(=O)(O)OC[C@@H]2O[C@H](n3cnc4c(N)ncnc43)[C@@H](O)[C@@H]2O)[C@H](O)[C@H]1O | -4
COC(=O)N1CC=CC1(C)C(=O)O (stereo not drawn) | -5
CCCCCCCCCCCCCCCCCCc1ccc(C(=O)/C=C\C(=O)O)cc1 | -2

Given field by field: entries from further up
C[C@H]1Cc2c(COc3ccccc3)nc3c(c2CO1)CN(C(=O)Cc1cccs1)CC3
  GLA inh pH 4.5 = 7

Nc1ncnc2c1ncn2[C@@H]1O[C@H](COP(=O)(O)OP(=O)(O)OP(=O)(O)OP(=O)(O)OC[C@@H]2O[C@H](n3cnc4c(N)ncnc43)[C@@H](O)[C@@H]2O)[C@H](O)[C@H]1O
  GLA inh pH 4.5 = -4

COC(=O)N1CC=CC1(C)C(=O)O (stereo not drawn)
  GLA inh pH 4.5 = -5

CCCCCCCCCCCCCCCCCCc1ccc(C(=O)/C=C\C(=O)O)cc1
  GLA inh pH 4.5 = -2

Additional entries
SMILES | GLA inh pH 4.5
COC(=O)N1C2CC3(C)CC(=O)CC1(C)C3c1ccccc12 (stereo not drawn) | 9
CC(C)(C)OC(=O)C1=NOC2(C=CC(=O)C=C2)C1 | -5
CO/N=C(\C(=O)N[C@@H]1C(=O)N2C(C(=O)O)=C(COC(C)=O)CS[C@@H]12)c1csc(N)n1 | 3
CCN(CC)CCn1c(-c2ccccc2)nc2c(N3CCOCC3)nc(C)nc21 | -6
O=C(O)C1CCNCC1 | 3
CCCC[C@@H]1C[C@H]1C(NC(=O)c1ccco1)c1ccc(C(=O)OC)cc1 (stereo partly drawn) | -6
COc1ccc(CNc2ncncc2-c2ccc3c(c2)OCO3)c(OC)c1 | -1
CCCC[C@@H]1C[C@H]1C(NC(=O)c1ccco1)c1ccc(-c2ccccc2)cc1 (stereo partly drawn) | -3
COCCNc1nc(-c2ccc(N(C)C)cc2)nc2ccccc12 | -14
Cc1cc2oc(=O)cc(-c3ccccc3)c2c(C)c1-c1sccc1C=O | -10
COc1ccccc1-c1cncnc1NCc1cccnc1 | 0
CCOC(=O)CCCCCCCCCCCCC1C=CCC1 (stereo not drawn) | -1
CC1(C)C=CC(=O)[C@]2(C)C1CC(=O)[C@]1(C)C2CC[C@@]2(C)C(c3ccoc3)OC(=O)C3OC321 (stereo partly drawn) | 1
COc1cc(N)c(Cl)cc1C(=O)OCCCN1CCCCC1 | 3
COC(=O)NC(c1ccc2c(c1)OCO2)C(C(=O)OC)C(=O)OC (stereo not drawn) | -10
CCCCCCCC/C=C\CCCCCCCC(=O)OCC(CO)OC(=O)CCCCCCC/C=C\CCCCCCCC (stereo not drawn) | -8
CN(C)CCCSC(=N)N | 0&-4

Screening results (PubChem)

Some of the compounds tested. The share of hits here may be higher or lower than overall.
